High-throughput results as filed in PubChem BioAssay.
Vaccinia Venus: qHTS for Stage-Specific Inhibitors of Vaccinia Orthopoxvirus: Venus Reporter Primary qHTS. Vaccinia virus Venus reporter expression, fluorescence. Potency, µM (titrated, usually from 36.5 µM), for inactives: at the highest dose activity change, negative = inhibition, most hits filed as inhibitors. hit rate 0.46% among 330,000; active means well fitted inhibition curve with a large enough effect; inconclusive means small, poorly fitted or top-dose-only effect; inactive means no such curve, though single readings can be large or run the other way; tested in A549 cells; note: nearly all actives have a fitted effect of over 30% in size; inactives centre near -10
Vaccinia mCherry: qHTS for Stage-Specific Inhibitors of Vaccinia Orthopoxvirus: mCherry Reporter Primary qHTS; Vaccinia virus mCherry reporter infection, fluorescence; about a quarter of the inactives have no number; Potency, µM (highest dose often 36.5 µM), for inactives: at the highest dose activity change, negative = inhibition, actives largely listed as inhibitors; hit rate 0.63% among 310,000; active = well fitted inhibition curve with a large enough effect; inconclusive = small, poorly fitted or top-dose-only effect; inactive = no such curve, though single readings can be large or run the other way; tested in A549 cells; note: nearly all actives have a fitted effect of over 35% in size; inactives centre near -10
An asterisk follows results filed as active; i = inactive; ? = inconclusive; . = no result given; & = joins results of further samples; [ ] = dose if it differs, or a comment. % is set by controls: 0 for no effect and ±100 for the full control effect; potency is the fitted concentration of half-maximal effect.

1: N=C1/C(=C/c2cccn2CCOc2ccccc2)C(=O)N=C2SC=C(c3ccccc3)N12
2: COc1ccccc1-c1ccnc(-n2ncc(C(=O)N(C)CCc3ccccn3)c2C)n1
3: Cc1ccc(CNC(=O)CN2C(=O)COc3ccc(S(=O)(=O)N4CCC(C)CC4)cc32)cc1
4: COc1ccc(-c2nc3c(C)cc(Br)cn3c2Cc2ccsc2)cc1OC
5: Cc1cc(C)c(C(=O)CN2C(=O)NC3(CCCCC3)C2=O)cc1C
6: Cc1ccc(C(=O)NN=Cc2ccc3c(c2)OCO3)cc1
7: COc1ccccc1-n1c(SCC(=O)O)nc2sc3c(c2c1=O)CCC3
8: CC(C)c1ccc(/C=C/C(=O)NC(=S)Nc2ccc(CN3CCOCC3)cc2)cc1
assay / compound | 1 | 2 | 3 | 4 | 5 | 6 | 7 | 8
Vaccinia mCherry | ? | -17.1% | -11.0%[7.34 µM] | i | -6.5% | i | i | i
Vaccinia Venus | ? | 2.1% | -6.3%[7.34 µM] | -11.6% | -15.3% | -2.3% | -9.9% | -12.4%

9: Cc1cc(C)c(NC(=O)C2CCCO2)c(C)c1NC(=O)C1CCCO1 (configuration not stated)
10: COc1cc(NS(=O)(=O)c2c(C)[nH]c(C)c2C(=O)N2CCCC2)cc(OC)c1OC
11: Cc1c(C(=O)NCc2cccc([N+](=O)[O-])c2)sc(=O)n1Cc1ccccc1F
12: Cc1oc(-c2ccccc2F)nc1CS(=O)(=O)CC(=O)NCCCc1ccccc1
13: Cc1ccc(CN2C(=O)c3ccccc3Sc3ccc(C(=O)N4CCC5(CC4)OCCO5)cc32)cc1
14: COC(=O)c1cc2n(n1)CCN(Cc1cccc(OC)c1)C2=O
15: CCc1nc2ccc(C(=O)Nc3ccc(NC(C)=O)cc3)cn2c1N(C)CCC(C)C
16: COc1ccccc1N1CCN(CC(O)COc2ccc(S(=O)(=O)N3CCOCC3)cc2)CC1 (configuration not stated)
assay / compound | 9 | 10 | 11 | 12 | 13 | 14 | 15 | 16
Vaccinia mCherry | 10.9% | -3.0%[7.34 µM] | 0.0% | -2.0% | -23.3% | i | 10.3% | -22.3%
Vaccinia Venus | -15.6% | 3.1%[7.34 µM] | 1.5% | -14.1% | -15.2% | -0.9% | -13.7% | -17.9%

Part of the list above in order of number of heavy atoms, smallest number first:
11: Cc1c(C(=O)NCc2cccc([N+](=O)[O-])c2)sc(=O)n1Cc1ccccc1F
12: Cc1oc(-c2ccccc2F)nc1CS(=O)(=O)CC(=O)NCCCc1ccccc1
16: COc1ccccc1N1CCN(CC(O)COc2ccc(S(=O)(=O)N3CCOCC3)cc2)CC1 (configuration not stated)
assay / compound | 11 | 12 | 16
Vaccinia mCherry | 0.0% | -2.0% | -22.3%
Vaccinia Venus | 1.5% | -14.1% | -17.9%

Whole records, quoted from the list:
Record of `Cc1ccc(CN2C(=O)c3ccccc3Sc3ccc(C(=O)N4CCC5(CC4)OCCO5)cc32)cc1` = Vaccinia mCherry = -23.3%; Vaccinia Venus = -15.2%
Record of `COC(=O)c1cc2n(n1)CCN(Cc1cccc(OC)c1)C2=O` = Vaccinia mCherry = i; Vaccinia Venus = -0.9%
Record of `Cc1c(C(=O)NCc2cccc([N+](=O)[O-])c2)sc(=O)n1Cc1ccccc1F` = Vaccinia mCherry = 0.0%; Vaccinia Venus = 1.5%

New compounds follow.
17: O=C(NCC1CCCO1)c1cccc(NS(=O)(=O)c2ccc(Br)cc2)c1 (configuration not stated)
18: COc1ccc(NC(=O)Nc2cccc3c2O[C@H](CN(C)C(=O)Nc2c(C)noc2C)[C@@H](C)CN([C@H](C)CO)C3=O)cc1
19: Cc1ccc(NC(=O)Cn2c(=O)n(Cc3nc(-c4ccccc4)no3)c(=O)c3ccccc32)c(C)c1
20: CSc1cc(-c2ccccc2)n(Cc2ccccc2Cl)c(=O)c1C#N
21: CC(=O)c1cccc(NC(=O)Nc2cccs2)c1
22: CC(=O)c1ccc(NC(=O)c2ccc(NC(=O)c3ccco3)cc2)cc1
23: CCN(CC)C1CCN(C(=O)c2cnn(-c3nccc(-c4ccccc4OC)n3)c2-c2ccco2)C1 (configuration not stated)
24: Clc1cccc(-c2csc(Nc3cccnc3)n2)c1
assay / compound | 17 | 18 | 19 | 20 | 21 | 22 | 23 | 24
Vaccinia mCherry | i | -15.7% | -2.0% | . | . | -7.7% | i | ?
Vaccinia Venus | -21.0% | -7.3% | -13.1% | -23.2% | -9.0% | -16.3% | -13.7% | -17.4%

25: COc1ccc(Cl)cc1NC(=S)Nc1ccccc1C
26: CCOc1ccc(N(CC(=O)NCc2ccccc2Cl)S(=O)(=O)c2c(C)[nH]c(=O)[nH]c2=O)cc1
27: CN1CCN(S(=O)(=O)c2ccc(NC(=O)COc3ccccc3Cl)cc2)CC1
28: Cc1ccc(S(=O)(=O)N2C[C@@H]3CCCC[C@@H]3[C@@H](C)[C@H]2c2cn(Cc3ccccc3)c3ccc(F)cc23)cc1
29: COC(CN(C)C(=O)c1ccc(CS(=O)(=O)c2ccccc2C)o1)OC
30: COc1ccc(OC(C)C(=O)N2CCc3ccccc3C2)cc1 (configuration not stated)
31: CCOC(=O)c1c(C)noc1-c1ccc(Br)o1
32: COc1ccc(-c2nc(-c3ccc(O)cc3O)cs2)cc1OC
assay / compound | 25 | 26 | 27 | 28 | 29 | 30 | 31 | 32
Vaccinia mCherry | 7.9% | i | 4.3% | -5.5% | -14.1% | -6.6% | i[7.34 µM] | -26.5%
Vaccinia Venus | -1.3% | -17.2% | 4.4% | -22.0% | -7.8% | -9.8% | -4.6%[7.34 µM] | -19.3%

33: Cc1ccsc1C(=O)NNC(=O)Nc1ccc(Cl)c(Cl)c1
34: CC(C)(C)NC(=O)Cn1c(=O)c(=O)n(Cc2ccccc2)c2ccc(Cl)cc21
35: CCOC(=O)c1cc(C)nn1-c1nc(Cl)cc(OC)n1
36: CCN(Cc1ccccc1)C(=O)Cn1c(=O)n(-c2ccc(OC)cc2OC)c(=O)c2c(C)c(C)sc21
37: CC1CN(C(=O)CCC(=O)NCc2ccccc2)c2cc(Cl)ccc2O1 (configuration not stated)
38: CC1(c2ccc(Cl)cc2)NC(=O)N(CC(=O)Nc2ccc3c(c2)OCO3)C1=O (configuration not stated)
39: COc1ccc(OC)c(C2=Nn3c(nnc3-c3cc(C)[nH]n3)SC2)c1
40: O=C(COc1ccc(S(=O)(=O)N2CCCCC2)cc1)NCc1ccccn1
assay / compound | 33 | 34 | 35 | 36 | 37 | 38 | 39 | 40
Vaccinia mCherry | -15.6% | i | -3.5% | -24.0% | ? | i | i | i
Vaccinia Venus | -10.7% | -6.5% | -7.2% | -15.6% | 1.5%&-5.8% | -8.9% | -24.8% | -8.8%

41: CN(C)CCOC(=O)NC12CC3CC(CC(C3)C1)C2
42: Cc1ccc(C)c(C(=O)CN2C(=O)NC3(CCC(C)CC3)C2=O)c1 (configuration not stated)
43: Cc1ccc(C(=O)NNC(=O)CCn2nnc3ccccc32)cc1
44: COC(=O)C1=CN(C)C=C(C(=O)OC)C1c1ccccc1Cl
45: C(=NN1CCCCCC1)c1c[nH]c2ccccc12
46: Cc1cccc(CN2Cc3cccc4c3[C@H](C=CC4)CC2=S)c1
47: Cc1ccc(S(=O)(=O)N(C)c2ccc(OCC(=O)OCC(=O)N(CC#N)c3ccccc3)cc2)cc1
48: COc1ccc(-c2cn3c(n2)sc2cc(C(=O)NC4CCCCC4)ccc23)cc1
assay / compound | 41 | 42 | 43 | 44 | 45 | 46 | 47 | 48
Vaccinia mCherry | i | -23.1% | -16.5% | -12.9% | ? | -1.0% | -9.8% | 8.0%
Vaccinia Venus | -12.6% | -4.1% | -5.5% | -0.2% | 6.1% | -11.2% | -6.2% | 14.2%

49: CC1(C)CC(=O)C(C=Nc2cccnc2/N=C/C2=C(O)CC(C)(C)CC2=O)=C(O)C1
50: C[C@@H]1CN([C@H](C)CO)C(=O)c2cc(-c3ccc(C#N)cc3)cnc2O[C@H]1CN(C)C(=O)c1ccccc1
51: CCN(CC)CCCNC(=S)N1CCN(c2nc(-c3ccccc3)cs2)CC1
52: COc1cccc(NC(=O)c2sc3nc(C)c(C(=O)Nc4ccc(C)cc4C)c(-c4ccc(C)o4)c3c2N)c1
53: CCOc1ccc(N/C(C)=C/C(=O)c2ccc3c(c2)OCCO3)cc1
54: O=C(c1cnn(C(=O)COc2ccccc2F)c1)c1cc(F)ccc1O
55: O=C(/C(=N\O)n1cncn1)c1ccc(Br)cc1Br
56: CCOc1ccc(NC(=O)c2ccc(NC(=S)NC3CC3)cc2)cc1
assay / compound | 49 | 50 | 51 | 52 | 53 | 54 | 55 | 56
Vaccinia mCherry | -7.0% | i | -22.9% | -1.2% | -3.2% | i | -8.1% | -14.3%
Vaccinia Venus | -10.3% | -15.4% | ? | -5.2% | -15.0% | 6.0% | -2.2% | 0.1%

57: CCCCOC(=O)Nc1nc(C)c(C(=O)OCC)s1
58: COc1ccccc1CNC(=O)CN(C)S(=O)(=O)c1ccc(F)cc1
59: CC(C)(C)c1ccc(C(=O)NCc2nnc(SCC(=O)NC3CCCC3)o2)cc1
60: COc1ccc(CCNC(=O)CCCN2C(=O)c3ccccc3C2=O)cc1
61: CCc1nc2ccc(C(=O)Nc3ccc(C(N)=O)cc3)cn2c1N(CCC(C)C)CCN(C)C
62: Cc1cc(C)c(NC(=O)c2cc(S(=O)(=O)NCCC3=CCCCC3)ccc2F)c(C)c1
63: COc1cc(C(=O)NC2CCN(CC(=O)NC3CCCCC3)CC2)cc(OC)c1OC
64: Cc1csc(Nc2nc(N)c(C(=O)Nc3cc(Cl)ccc3F)o2)n1
assay / compound | 57 | 58 | 59 | 60 | 61 | 62 | 63 | 64
Vaccinia mCherry | -9.5% | -6.2% | -2.4% | -2.1% | 7.2% | ? | 1.4% | ?
Vaccinia Venus | -6.8% | -7.6% | -10.3% | 2.7% | -1.5% | -24.5% | -1.1% | ?

65: CC(C)(C)OC(=O)NCc1ccc(CNC(=O)c2[nH]cnc2C(=O)NCC(=O)OCc2ccccc2)cc1
66: CCN(CC)CCN(Cc1cc2cc(C)c(C)cc2[nH]c1=O)C(=S)NCc1ccco1
67: CCC(=O)Nc1nnc(SCC(=O)Nc2cccc(Cl)c2)s1
68: Cc1cccc(C)c1OCC(=O)Nc1cccc(S(=O)(=O)N2CCCC2)c1
69: CCCc1nn2c(=O)cc(CSCC(=O)Nc3ccc(F)cc3)nc2s1
70: CC(=O)Nc1ccc(N2C(=O)CC(Sc3nccc(C)n3)C2=O)cc1 (configuration not stated)
71: Cc1ccc(C)n1CCN1CCN(C(=O)c2ccco2)CC1
72: CCCCCN(C(=O)CCC(=O)OCC(=O)N(CC#N)c1ccccc1)c1c(N)n(CCCC)c(=O)[nH]c1=O
assay / compound | 65 | 66 | 67 | 68 | 69 | 70 | 71 | 72
Vaccinia mCherry | -1.2% | -4.6% | -16.2% | -27.5% | 13.5%[7.34 µM] | -15.5% | . | -12.3%
Vaccinia Venus | -6.1% | -24.7% | -3.3% | -20.9% | 21.7%[7.34 µM] | -7.0% | 2.0% | -8.0%

73: CCOC(=O)c1nnsc1-c1ccc(-c2snnc2C(=O)OCC)cc1
74: COc1ccc(NC(=O)c2ccncc2)cc1S(=O)(=O)N1CCCCC1
75: COc1ccc(NC(=O)C2CCN(S(=O)(=O)c3c(C)noc3C)CC2)cc1Cl
76: CCc1ccc(C2CC(=O)NC(SCC(=O)OC(C)C)=C2C#N)cc1 (configuration not stated)
77: CN(C(=O)CNC(=O)c1ccc(Br)o1)C1CCCCC1
78: CCOC(=O)N1CCN(C(=O)c2cc(C)no2)CC1
79: CCOC(=O)Nc1ccc(S(=O)(=O)NC2CCCCC2)cc1
80: O=S(=O)(c1cccc(-c2nnc3n2CCCCC3)c1)N1CCCC1
assay / compound | 73 | 74 | 75 | 76 | 77 | 78 | 79 | 80
Vaccinia mCherry | i | -17.5% | -0.9% | -7.3% | i | -14.6% | i | -7.2%
Vaccinia Venus | -15.7% | -12.4% | -12.2% | -18.2% | -8.3% | -14.0% | -10.3% | -1.8%

81: CCOC(=O)c1nnn(CC(=O)Nc2ccccc2OC)c1C(=O)OCC
82: CCOc1ccc(S(=O)(=O)Nc2ccc3oc4c(c3c2)CC(C)CC4)cc1 (configuration not stated)
83: O=C(C[n+]1cccc(O)c1)NCc1ccc(Cl)cc1
84: CCCN1CNc2c(c(=O)[nH]c(=S)n2CCc2ccccn2)C1
85: CC(NC(=O)c1ccco1)c1nc(-c2ccccc2Cl)no1 (configuration not stated)
86: O=C(NCCCn1ccnc1)c1sc2cc([N+](=O)[O-])ccc2c1Cl
87: O=[N+]([O-])c1cccnc1N/N=C/c1ccccc1O
88: CCOC(=O)c1ccc(N/C=C2/CCCC(C)C2=O)cc1 (configuration not stated)
assay / compound | 81 | 82 | 83 | 84 | 85 | 86 | 87 | 88
Vaccinia mCherry | -21.2% | -20.8% | i | -11.7% | 4.0% | i | ? | .
Vaccinia Venus | -6.0% | -2.6% | -14.9% | -5.7% | -1.7% | -10.1% | 13.1% | -5.0%
